Screens (PubChem BioAssay)
eIF4H FP inh: human eIF4H binding inhibitors, primary screen, translation initiation inhibitor project, biochemical, uHTS, fluorescence polarization | eIF4H fluorescence polarization binding assay | Eukaryotic translation initiation factor 4H (Homo sapiens), Q15056 | inhibition, % at 35 µM | AID 2012, 2009 | 290,000 compounds, 0.94% hits;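 active = 50% or more with normal probe brightness, or confirmed in later tests; inconclusive = above 50% with abnormal brightness, or retests that disagree; inactive = below 50% or failed in later tests; about a fifth of its hits are not listed in these tables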;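 note: calls also rest on retests at 20 µM and on dose response follow-up; 0% = protein and probe with vehicle and 100% = probe without protein; strong numbers were not always called active; many hits fall short of the cut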
Env fusion inh: inhibitors of HIV-1 Env-driven cell-cell fusion, primary screen, HeLa-JRFL effector, CEM21 target cells, luciferase; inhibition, % at 12.3 µM; 360,000 compounds, 1.1% hits; AID 651610, 2012;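 active = mean replicate inhibition score of at least 50 and every replicate individually at or above 50; inconclusive = only one of the two criteria met; inactive = mean below 50 and not all replicates reaching 50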;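 note: 0% = plate neutral controls and 100% = maraviroc near 300 nM; one replicate is shown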
CSC inhib: cancer stem cell viability inhibitors, primary screen, luminescence; 300,000 compounds, 1.1% hits; inhibition, % at 7.5 µM; cancer stem cell-like cells viability;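 active = mean at 75% or more and at least half the replicates too; inconclusive = mean and replicates disagree; tested in HMLE shEcad cells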;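 note: 0% = median of negative and 100% = median of positive control wells; the first replicate is given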
Rce1 inhib: yeast Rce1p protease inhibitors, primary screen, biochemical, fluorescence, cell-free homogeneous. 290,000 compounds, 0.27% hits. calls only. yeast membranes, quenched prenylated peptide cleavage fluorescence. AID 2563, 2010;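 active = fall in fluorescence gain of 50% or more versus controls, with final raw signal at or below 3038400; inconclusive = same 50% fall but final raw signal above 3038400; inactive = fall in fluorescence gain under 50%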;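 note: plate controls were neutral control wells for no effect and wells lacking membranes for full effect; tested at 10 µM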
Target sequence (Q03530 whole entry, looked up): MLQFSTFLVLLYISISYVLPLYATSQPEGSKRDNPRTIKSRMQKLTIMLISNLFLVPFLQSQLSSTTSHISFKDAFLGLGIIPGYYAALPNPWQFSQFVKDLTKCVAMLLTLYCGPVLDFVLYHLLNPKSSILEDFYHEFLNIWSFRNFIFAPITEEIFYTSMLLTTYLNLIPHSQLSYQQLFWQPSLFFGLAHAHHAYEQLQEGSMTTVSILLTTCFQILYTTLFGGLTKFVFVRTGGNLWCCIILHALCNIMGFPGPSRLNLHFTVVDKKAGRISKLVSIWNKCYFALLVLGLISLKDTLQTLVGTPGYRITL
PABP polyA inh: PABP poly(A) RNA binding inhibitors, primary screen, biochemical, fluorescence polarization, uHTS. inhibition, % at 35 µM. 290,000 compounds, 1% hits. AID 2014, 2009. Polyadenylate-binding protein 1 (Homo sapiens), P11940;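 active = 50% or more with normal probe brightness, or confirmed in later tests; inconclusive = above 50% with abnormal brightness, or retests that disagree; inactive = below 50% or failed in later tests; about a fifth of its hits are not listed in these tables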;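 note: calls also rest on retests at 20 µM and on dose response follow-up; controls were probe without protein and protein plus probe with vehicle; some compounds called inactive have numbers as strong as hits; many hits fall short of the cut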
Target sequence (P11940 whole entry, looked up): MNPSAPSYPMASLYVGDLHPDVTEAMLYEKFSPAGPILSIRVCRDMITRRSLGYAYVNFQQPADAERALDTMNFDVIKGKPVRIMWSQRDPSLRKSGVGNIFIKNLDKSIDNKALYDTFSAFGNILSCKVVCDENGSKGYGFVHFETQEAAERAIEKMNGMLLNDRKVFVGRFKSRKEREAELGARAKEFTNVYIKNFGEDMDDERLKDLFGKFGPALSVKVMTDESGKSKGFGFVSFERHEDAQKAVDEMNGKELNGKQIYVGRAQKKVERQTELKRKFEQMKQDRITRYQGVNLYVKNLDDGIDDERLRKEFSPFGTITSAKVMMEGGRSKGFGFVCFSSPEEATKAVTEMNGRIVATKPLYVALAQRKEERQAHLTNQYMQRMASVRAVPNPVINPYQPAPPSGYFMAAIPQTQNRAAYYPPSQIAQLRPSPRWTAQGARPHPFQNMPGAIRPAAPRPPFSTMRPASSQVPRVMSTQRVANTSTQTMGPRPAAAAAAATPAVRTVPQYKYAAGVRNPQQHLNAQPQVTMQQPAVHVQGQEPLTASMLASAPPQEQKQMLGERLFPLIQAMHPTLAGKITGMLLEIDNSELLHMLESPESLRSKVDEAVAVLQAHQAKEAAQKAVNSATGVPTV
MT1-MMP act inh: blockers of MT1-MMP proenzyme processing, primary screen, HT1080 RFP-PRO-GFP cells, GFP/RFP fluorescence; GFP/RFP ratio fluorescence, overnight; percent of plate control window, DMSO zero; GFP/RFP ratio change, % at 20 µM; AID 651647, 2012; 360,000 compounds, 0.061% hits; Matrix metalloproteinase-14 (Homo sapiens), P50281;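 active = GFP/RFP ratio change of at least 30% with cell ATP level not reduced by more than half and red fluorescence within 50% of control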; note: strong numbers were not always called active
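Compound: 20 µM single dose, 1% DMSO / System: HT1080 RFP-PRO-GFP cells / Controls: DMSO and RFP-L50D-GFP cell wells / Read-out basis: GFP/RFP fluorescence ratio / Schedule: overnight compound exposure at 37 °C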
UUG fidelity: modulators of yeast start codon fidelity, primary screen, whole organism, S. cerevisiae, single point, plate reader. S. cerevisiae UUG-firefly luciferase reporter, luminescence/redox ratio. activity score, % at 18.7 µM. 350,000 compounds, 0.13% hits. AID 602363, 2012;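 active = replicate mean at a twofold rise or more, about +100% in these data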;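 note: firefly luciferase made from a UUG start codon reports start codon fidelity; reporter light over untreated wells divided by growth signal over untreated wells; some hits fall short of that in this replicate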
eIF4H FP inh retest: also measured in eIF4H FP inh; calls as there; inhibition, %; compound at 20 µM; confirmation average;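 mean of two retest wells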
PABP polyA inh retest: recorded beside PABP polyA inh, whose call it bears; inhibition, %; compound at 20 µM; confirmation repeats;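 mean of two retest wells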
MT1-MMP act inh RFP: further read-out of MT1-MMP act inh, marked with its call; RFP signal change, %; measured here: RFP expression control read;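 0 = vehicle wells; hits needed this value within 50% of zero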
* hit, by the source's call; i = inactive; u = inconclusive; x = not tested or not shown.

SMILES	eIF4H FP inh	Env fusion inh	CSC inhib	Rce1 inhib	PABP polyA inh	MT1-MMP act inh	MT1-MMP act inh RFP	UUG fidelity	others
Cc1ccc(C(=O)N2CCN=C2SCc2ccc([N+](=O)[O-])cc2)cc1C	-3	11	3	i	66	4	-4	x	eIF4H FP inh retest=1;PABP polyA inh retest=8
O=C(c1ccc(Cl)c(S(=O)(=O)Nc2ccccc2C(=O)N2CCc3ccccc3C2)c1)N1CCc2ccccc2C1	1	x	4	i	-5	14	-2	x
COc1ccc(/C=C/C(=O)NCCOc2ccccc2OC)cc1	2	8	-10	i	6	-3	-1	x
COc1ccccc1S(=O)(=O)CC(O)COc1ccc(C#N)cc1 (configuration not stated)	-13	13	10	i	1	1	3	x
CCOC(=O)c1cc(-c2ccc(Cl)s2)[nH]n1	-1	13	-3	i	1	2	0	x
NC(=O)NC(=O)CN1C(=O)NC2(CCOc3ccccc32)C1=O (configuration not stated)	-14	-1	-15	i	0	1	1	-5
CC(C)CCNC(=S)Nc1ccc(F)cc1	x	17	-11	i	x	1	-2	-28
COc1ccc2nc(SCC(=O)NCCc3ccccc3)[nH]c2c1	-3	4	-7	i	8	3	1	x
CC(C)CNC(=O)C1CCCN1S(=O)(=O)c1ccc(Cl)cc1 (configuration not stated)	7	x	x	i	-4	-2	-1	-22
CC(C)(C)c1ccc(C(=O)NCC(=O)N/N=C/c2cccnc2)cc1	0	-3	-14	i	-3	5	5	-18
Cc1ccc(N2C(=O)c3ccc(C(=O)N4CCN(c5cccc(C)c5C)CC4)cc3C2=O)cc1	-2	-28	-6	i	-7	3	4	-12
COC(=O)[C@]1(Cc2ccccc2)N[C@H](CN(C)S(=O)(=O)c2ccc(C(F)(F)F)cc2)[C@@H]2C(=O)N(Cc3ccccc3)C(=O)[C@@H]21	x	69*	1	x	x	-5	-9	-17
COc1ccc(N2CCN(C(=O)CNC(=O)c3ccc4ccccc4c3)CC2)cc1	x	6	1	x	x	0	0	5
COCCNC(=O)C1(C)Oc2ccccc2NC1=O (configuration not stated)	1	3	4	i	-8	-7	3	-23
COc1cc(C(=O)OC(C)CN2CCN(C)CC2)cc(OC)c1OC (configuration not stated)	-2	3	6	i	-6	-5	-1	-4
COc1ccc(C(=O)NCC(=O)OCC(=O)N(C)c2ccccc2)cc1	0	-2	4	i	4	-1	1	-16
COc1ccc(NS(=O)(=O)c2c(C)[nH]c(=O)[nH]c2=O)cc1OC	-2	13	-10	i	-2	1	1	-13
COc1cccc2c3c(c(C)nc12)CCN3c1ccccc1	6	19	x	i	46	-1	-1	x
CC(=O)c1cccc(NC(=O)C2CCCN(S(=O)(=O)c3cccc4nonc34)C2)c1 (configuration not stated)	8	9	-18	i	2	-5	-3	-4
O=C(NC1CC1)C1CCN(C2CCN(C(=O)CC3=CCCCC3)CC2)CC1	-7	24	-4	i	-7	1	0	-1
Cc1ccc(S(=O)(=O)Nc2cc(=O)[nH]c(SCC(=O)Nc3ccccc3C(F)(F)F)n2)cc1	10	-2	-13	i	1	-2	1	-19
O=C1NC(c2cccs2)Nc2sc3c(c21)CCCC3 (configuration not stated)	6	x	11	i	3	-2	5	-27
NC(=O)C1CCCN1 (configuration not stated)	6	4	-16	i	4	-4	2	x
O=S(=O)(Cc1ccc(Cl)cc1)CC(O)COCc1ccccc1 (configuration not stated)	-4	x	-6	i	-3	4	-2	-12
CCCCCCCCCCCCC(NC(C)=O)(C(=O)OCC)C(=O)OCC	-6	-5	65	i	7	0	-2	4
CC(C)CC(=O)Nc1ncc([N+](=O)[O-])s1	-7	-13	1	i	16	1	-4	-13
CCOC(=O)c1c(NC(=O)c2cc(C(C)C)on2)sc(C(C)=O)c1C	-2	-6	-10	i	8	-1	4	x
CCO[C@@H]1OC(C(=O)O)=C[C@H](C2CC2)[C@H]1CCCO	1	x	-8	i	2	4	0	-11
O=C(NCc1cc(Cl)cc(Cl)c1)c1ccc2sc([C@H]3C[C@H](O)[C@@H](CO)O3)nc2c1	x	-7	x	x	x	4	-2	-17
CCCCN(C(=O)CCC(=O)O)C1CC(=O)N(c2ccc(OCCC)cc2)C1=O (configuration not stated)	-4	x	-10	i	11	11	8	-9
OC[C@@H]1CN(Cc2ccc(Cl)cc2)C[C@H](n2cnc3c(N4CCN(c5ccccc5)CC4)ncnc32)O1	x	36	x	x	x	-4	-23	21
COc1cc(OC)cc(-c2nnc(NC(=O)c3ccc4c(c3)OCCO4)o2)c1	11	-17	32	i	-5	8	0	6
CN(CCO)c1ccc(C(C(=O)c2ccccc2)c2ccc(N(C)CCO)cc2)cc1	x	-11	-7	i	x	0	-1	6
CNc1nc(Nc2ccc(Br)cc2)nc(N)c1[N+](=O)[O-]	0	7	1	i	12	2	0	x
CCOC(=O)c1c(NC(C)=O)sc2c(OCC(O)CN(CC)CC)c(Br)ccc12 (configuration not stated)	3	-38	25	i	-10	-10	-16	2
COc1cccc2cc(-c3csc(CCn4nc(C)cc4C)n3)c(=O)oc12	-1	x	-5	i	5	3	0	-14

4 successive records already listed, quoted:
SMILES	eIF4H FP inh	Env fusion inh	CSC inhib	Rce1 inhib	PABP polyA inh	MT1-MMP act inh	MT1-MMP act inh RFP	UUG fidelity	others
CCCCCCCCCCCCC(NC(C)=O)(C(=O)OCC)C(=O)OCC	-6	-5	65	i	7	0	-2	4
CC(C)CC(=O)Nc1ncc([N+](=O)[O-])s1	-7	-13	1	i	16	1	-4	-13
CCOC(=O)c1c(NC(=O)c2cc(C(C)C)on2)sc(C(C)=O)c1C	-2	-6	-10	i	8	-1	4	x
CCO[C@@H]1OC(C(=O)O)=C[C@H](C2CC2)[C@H]1CCCO	1	x	-8	i	2	4	0	-11

Other records follow:
SMILES	eIF4H FP inh	Env fusion inh	CSC inhib	Rce1 inhib	PABP polyA inh	MT1-MMP act inh	MT1-MMP act inh RFP	UUG fidelity	others
O=C(CN(Cc1ccccc1)C(=O)CSc1nnc(COc2ccccc2)o1)NC1CCCC1	4	9	-16	i	0	-5	-3	-7
O=C(Cc1c(F)cccc1Cl)Nc1ccccc1-c1ccccc1	-5	6	-7	i	4	3	-2	540*
Cn1cccc1-c1cc(C(=O)N/N=C/C=C/c2ccccc2)[nH]n1	-15	-32	0	i	11	8	8	x
CCN(CCNC(=O)C1CCCN(S(=O)(=O)CC)C1)c1ccccc1 (configuration not stated)	0	x	-10	i	2	4	9	x
O=C1c2cccnc2C(O)N1Cc1ccc(F)cc1 (configuration not stated)	-8	x	-3	i	6	7	2	x
COc1ccc(O)c(/C=N/NC(=O)CCC(=O)Nc2ccc(C)cc2)c1	-2	6	26	i	-2	5	-4	-20
CCOCC(=O)Nc1cc(C(=O)NCCc2ccccc2)ccc1Cl	-10	3	-16	i	1	3	2	x
CC(C)C(=O)Nc1cccc(COc2ccc(CN(Cc3ccccc3)C(=O)OC(C)(C)C)cc2)c1	x	58*	x	x	x	-1	-28	-20
Cc1cc(C)cc(NC(=O)COc2ccc3c(C)c(Cc4ccccc4)c(=O)oc3c2)c1	3	x	31	i	-4	x	x	x
CCOC(=O)C(CC)Sc1nc(N)c(NC(=O)c2ccc(OC)c(OC)c2)c(=O)[nH]1 (configuration not stated)	-7	-101	-3	i	4	-3	1	7
O=C(CSc1nc2ccccc2c(=O)n1CCCN1CCOCC1)Nc1ccc(F)c(Cl)c1	x	71*	8	x	x	5	-1	10
Fc1ccccc1N1CCN(c2nc(-c3cccs3)nc3ccccc23)CC1	-3	9	38	i	-12	-5	-6	-10
CC1(OC(=O)C2CCCC2)C(=O)C=C2C=C(c3ccsc3)N(CC3CC3)C=C2C1=O (configuration not stated)	29	-10	8	i	27	-2	3	0
Cc1sc2ncnc(SCC(=O)Nc3cccc(S(N)(=O)=O)c3)c2c1C	x	x	-12	x	x	-3	-2	-12
Cc1ccccc1-n1sc2cc(F)ccc2c1=O	-16	-16	57	x	2	1	-11	-34
O=[N+]([O-])c1ccc2oc(/C=C/c3ccc(O)cc3)nc2c1	x	u	x	x	x	0	-7	-23
O=C(Nc1cc(-c2nc3ccccc3s2)ccc1Cl)c1ccc2c(c1)OCO2	-10	x	28	i	3	-1	0	-14
CC(C)NC(=O)c1onc(CSc2ccc(Cl)cc2)c1C(=O)O	0	7	29	i	23	4	3	-10
Cc1cc(NC(=O)CSc2nnc(-c3ccoc3C)n2N)no1	-9	-5	-11	i	-1	1	7	-5
COC(=O)c1ccc(-n2c(C)cc(C(=O)CSc3cccc[n+]3[O-])c2C)cc1	-5	4	8	i	22	2	-1	x
C(=N\Nc1ccc2ccccc2n1)/c1ccc2c(c1)OCO2	8	-22	20	i	-3	1	-1	-73
Fc1ccccc1CSc1nnc(-c2ccccc2)o1	-5	-187	-3	i	10	-2	13	-21
O=[N+]([O-])c1ccccc1N/N=C/c1cccc(O)c1O	-2	-114	86*	i	-6	1	-16	x
COc1ccc(/C=N/S(=O)(=O)c2ccc(C)cc2)cc1	-3	-63	-14	i	-5	-1	-1	-22
c1ccc2[nH]c(CSc3nc4ccccc4s3)nc2c1	-4	x	1	i	3	-5	-12	-34
O=C(C1=C(O)C(=O)N(Cc2ccccc2)C1c1cccnc1)c1ccco1 (configuration not stated)	x	2	x	i	x	2	6	-13
O=c1c2c(nc3nc[nH]n13)CCC2	8	x	5	i	3	8	0	-6
CCCOc1cccc(C(=O)N(Cc2ccc(OC)c(OC)c2)C2CCS(=O)(=O)C2)c1 (configuration not stated)	-13	-19	-2	i	3	-5	-2	-1
C#CCNC(=O)C1=C[C@@H](c2ccc3c(c2)OCO3)C[C@@H](OCc2ccc(CO)cc2)O1	x	-3	-3	i	x	1	1	5
CC(CC(=O)Nc1nnc(CC(C)(C)C)s1)c1ccccc1 (configuration not stated)	2	17	-9	i	-8	2	0	3
C#CCN(C[C@H]1[C@H](OC(=O)NCc2ccco2)[C@H](OC(=O)NCc2ccco2)C[C@H]2C(=O)N(c3ccccc3)C(=O)[C@@H]12)S(=O)(=O)c1ccc(C)cc1	x	-4	x	x	x	-1	2	-13
COc1c(F)c(F)c(C(=O)Nc2ccccc2N2CCN(C(=O)C(C)C)CC2)c(F)c1F	-1	x	4	i	2	-3	-2	-3
CN(Cc1ccccc1)C(=O)CNC(=O)C12CC3CC(CC(C3)C1)C2	x	x	-26	x	x	2	2	-2
CCC1(CC)C(=O)NC(=O)NC1=NCCc1c[nH]c2ccccc12	-11	-8	-3	i	3	3	4	-3
COc1cccc(C(=O)Nc2ncc3c(n2)CC(C)CC3=O)c1 (configuration not stated)	-4	-49	0	i	0	1	0	-22
COc1ccccc1-n1cnnc1SCC(=O)N1CCN(C(=O)c2ccco2)CC1	0	8	x	i	-6	-2	0	x
Cc1ccc(N=C2S/C(=C\c3cn(CC(=O)O)c4ccccc34)C(=O)N2C)cc1	1	x	0	i	6	-11	6	x

An excerpt, so the mix of outcomes need not match the whole.
